# Compound activity deposited in PubChem BioAssay by several laboratories.
# PABP polyA inh = PABP-poly(A) binding inhibition. P11940. PABP-poly(A) RNA binding, fluorescence polarization. AID 2014. 290,000 compounds, 1% hits. inhibition, % at 35 µM;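 active means 50% or more with normal probe brightness, or confirmed in later tests; about a fifth of its hits are not listed in these tables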;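 further: calls also rest on retests at 20 µM and on dose response follow-up; controls were probe without protein and protein plus probe with vehicle; some compounds called inactive have numbers as strong as hits; many hits fall short of the cut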
# Target sequence (P11940 whole entry, looked up): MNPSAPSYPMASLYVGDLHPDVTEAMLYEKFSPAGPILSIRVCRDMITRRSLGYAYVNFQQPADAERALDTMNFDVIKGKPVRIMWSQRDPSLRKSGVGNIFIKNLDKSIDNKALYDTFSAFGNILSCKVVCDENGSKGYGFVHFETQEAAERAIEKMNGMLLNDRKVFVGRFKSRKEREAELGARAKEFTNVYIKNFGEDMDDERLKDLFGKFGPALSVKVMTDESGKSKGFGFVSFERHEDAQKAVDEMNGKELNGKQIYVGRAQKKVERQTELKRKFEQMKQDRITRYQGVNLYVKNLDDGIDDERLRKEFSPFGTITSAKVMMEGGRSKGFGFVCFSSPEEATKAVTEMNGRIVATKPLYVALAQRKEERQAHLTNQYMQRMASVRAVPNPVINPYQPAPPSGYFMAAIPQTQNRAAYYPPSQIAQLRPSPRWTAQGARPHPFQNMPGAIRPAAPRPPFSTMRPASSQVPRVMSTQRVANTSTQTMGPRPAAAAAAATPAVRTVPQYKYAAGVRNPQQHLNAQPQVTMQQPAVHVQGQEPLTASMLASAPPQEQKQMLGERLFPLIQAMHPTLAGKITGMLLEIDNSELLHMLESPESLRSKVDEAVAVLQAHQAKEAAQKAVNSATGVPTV
# Env fusion inh = blocks HIV Env-driven cell-cell fusion; HeLa-JRFL Env/CEM21 cell fusion, luciferase; inhibition, % at 12.3 µM; 360,000 compounds, 1.1% hits; AID 651610;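 active means mean replicate inhibition score of at least 50 and every replicate individually at or above 50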;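 further: 0% = plate neutral controls and 100% = maraviroc near 300 nM; one replicate is shown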
# eIF4H inh = inhibitors of RNA binding by human eIF4H. inhibition, % at 35 µM. Q15056. eIF4H fluorescence polarization binding assay. 290,000 compounds, 0.94% hits. AID 2012;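 active means 50% or more with normal probe brightness, or confirmed in later tests; about a fifth of its hits are not listed in these tables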;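 further: calls also rest on retests at 20 µM and on dose response follow-up; 0% = protein and probe with vehicle and 100% = probe without protein; strong numbers were not always called active; many hits fall short of the cut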
# CSC inhib = blocks cancer stem cells. inhibition, % at 7.5 µM. AID 2717. 300,000 compounds, 1.1% hits. cancer stem cell-like cells viability, luminescence;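 active means mean at 75% or more and at least half the replicates too; tested in HMLE shEcad cells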;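 further: 0% = median of negative and 100% = median of positive control wells; the first replicate is given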
# MT1-MMP act inh = MT1-MMP (human) activation inhibition; P50281; HT1080 RFP-PRO-GFP cells, GFP/RFP ratio fluorescence, overnight; percent of plate control window, DMSO zero; GFP/RFP ratio change, % at 20 µM; 360,000 compounds, 0.061% hits; AID 651647;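 active means GFP/RFP ratio change of at least 30% with cell ATP level not reduced by more than half and red fluorescence within 50% of control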; further: strong numbers were not always called active
#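 Read-out: GFP/RFP fluorescence ratio; Test system: RFP-PRO-GFP reporter HT1080 cells; Compound dosing: single-point 20 µM compound, 1% DMSO; Times: overnight compound exposure at 37 °C.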
# Rce1 inhib = blocks yeast Ras-converting enzyme; Q03530; yeast membranes, quenched prenylated peptide cleavage fluorescence; calls only; 290,000 compounds, 0.27% hits; AID 2563;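 active means fall in fluorescence gain of 50% or more versus controls, with final raw signal at or below 3038400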;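 further: plate controls were neutral control wells for no effect and wells lacking membranes for full effect; tested at 10 µM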
# Target sequence (Q03530 whole entry, looked up): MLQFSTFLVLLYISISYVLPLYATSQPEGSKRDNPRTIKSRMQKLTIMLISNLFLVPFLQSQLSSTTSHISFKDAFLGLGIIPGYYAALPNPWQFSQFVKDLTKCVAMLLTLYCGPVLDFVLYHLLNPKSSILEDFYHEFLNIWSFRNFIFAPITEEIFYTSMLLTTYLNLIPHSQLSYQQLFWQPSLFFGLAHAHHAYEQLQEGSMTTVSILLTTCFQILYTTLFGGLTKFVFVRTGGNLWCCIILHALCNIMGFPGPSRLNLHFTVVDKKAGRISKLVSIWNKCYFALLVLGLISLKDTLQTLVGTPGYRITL
# UUG fidelity = modulators of start codon recognition fidelity in yeast; S. cerevisiae UUG-firefly luciferase reporter, luminescence/redox ratio; activity score, % at 18.7 µM; 350,000 compounds, 0.13% hits; AID 602363;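 active means replicate mean at a twofold rise or more, about +100% in these data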;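 further: firefly luciferase made from a UUG start codon reports start codon fidelity; reporter light over untreated wells divided by growth signal over untreated wells; some hits fall short of that in this replicate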
# MT1-MMP act inh RFP = further read-out of MT1-MMP act inh, marked with its call; RFP signal change, %; measured here: RFP expression control read;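 0 = vehicle wells; hits needed this value within 50% of zero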
# Numbers without * were called inactive; i = inactive; · = not tested or not shown; & = joins results of further samples; [ ] = remark or other dose.
SMILES,PABP polyA inh,Env fusion inh,eIF4H inh,CSC inhib,MT1-MMP act inh,MT1-MMP act inh RFP,Rce1 inhib,UUG fidelity
C=CCNC(=O)COc1ccc(S(=O)(=O)Nc2ccc(OCC)cc2)cc1,2,-6,-14,·,-2,0,i,·
COC(=O)c1ccccc1NC(=O)/C=N/O,-4,-30,2,-1,-2,3,i,-14
Cc1ccc(/C=N/NC(=O)CN(Cc2ccccc2)S(=O)(=O)c2ccc3c(c2)OCCO3)cc1,2,·,-5,21,-1,-7,i,-12
COc1cc(OC)c2c(C)c(Cl)c(=O)oc2c1,2,i,-2,4,-2,3,i,-27
CCOc1ccc(NS(=O)(=O)c2ccc(C(=O)NCC3(N4CCCCC4)CCCCC3)cc2)cc1,-3,·,40,0,-1,-3,i,-5
CCN1C(=O)/C(=C\c2ccncc2)SC1=Nc1ccc(C)c(C)c1,4,1,-7,84*,-10,-12,i,-4
COc1ccc2c(c1OC)C(=O)N1N=C(c3ccc(Br)cc3)CC21 (stereo unspecified),7,·,-11,-4,1,-13,i,6
Nc1cccc(Nc2ncnc3ccccc23)c1,4,3,-1,-10,1,-1,i,-20
O=C(C1=C[C@H](c2ccccc2)C[C@H](OCc2ccc(CO)cc2)O1)N1CCN(Cc2ccc3c(c2)OCO3)CC1,9,15[16.7 µM],-7,13,2,-10,i,4&26&-15
O=S(=O)(c1cnccc1N1CCN(/N=C/c2ccccc2)CC1)N1CCCCC1,-3,·,-18,-5,1,-1,·,-10
O=C1Cc2cc(NS(=O)(=O)c3ccc(Cl)cc3)cc3c2N1CCC3,·,-7,·,-1,-3,0,i,-1
Cc1ccc2c(c1)N(CCCC(=O)NCCCN1CCCCC1)C(=O)CO2,-13,-24,-6,-10,2,5,i,-14
CCC(C)Oc1nc2ccccc2nc1NS(=O)(=O)c1ccccc1 (stereo unspecified),-4,-38,-4,·,4,5,i,-8
CCCCNC(=S)NNC(=O)c1cc(-c2cccnc2)nc2ccccc12,-4,-31,20,-4,17,0,i,-21
c1ccc(-c2nc(NCCCn3ccnc3)c3ccccc3n2)cc1,-1,16,-4,-2,1,1,i,·
O=C(NNC(=O)C12CC3CC(CC(C3)C1)C2)c1cnccn1,40,-2,2,5,5,8,i,-34
Cc1onc(-c2ccccc2)c1C(=O)Nc1sc2c(c1C#N)CCC(C)C2 (stereo unspecified),-8,·,-4,139*,-15,-19,i,-29
COC(=O)c1cccc(-n2c(CCC(=O)O)ccc2-c2cccs2)c1,3,14,4,13,-3,2,i,·
O=C1CNC(=S)N1CCc1ccc(O)c(O)c1,4,6,-4,8,4,0,i,-20
Clc1ccc(-c2cc(-c3nnc4n3CCCCC4)c3ccccc3n2)cc1,19,-4,-2,12,-5,-6,i,-10
Cc1cc(C(=O)COC(=O)c2ccc[nH]c2=O)c(C)n1-c1ccc(F)cc1,-5,-25,10,7,3,0,i,-26
C#CCNC(=O)C1=C[C@H](c2coc3ccccc3c2=O)[C@@H](CCCO)[C@H](OCC)O1,-1,13,2,2,0,5,i,0
CNc1cc(N2CCCC2)ccc1[N+](=O)[O-],-15,-14,11,-15,3,4,i,·
COc1ccc([N+](=O)[O-])cc1NC(=O)COC(C)=O,-4,21,0,-3,-3,6,i,·
Cc1cccc(NC(=O)C2Cc3ccccc3CN2C(=O)OCc2ccccc2)c1C (stereo unspecified),5,-9,1,-1,-7,-4,i,·
COc1ccc(-c2nnn(CC#N)n2)cc1OC,-2,·,-11,3,11,1,i,-1
Cc1ccc(Cc2nc(-c3cccc(C)c3)no2)cc1,11,-52,8,4,8,0,i,-2
CC(C)Oc1ccccc1-c1cc(C(=O)N/N=C/c2cccnc2)c2ccccc2n1,1,-21,-4,2,0,1,i,-12
N#CC(=NCc1cccnc1)C1=C(O)c2ccccc2C1=O,8,8,0,-4,1,-1,i,-7
COCCNC(=S)N/N=C(\C)c1ccc(-n2ccnc2)cc1,2,-48,-1,-2,2,4,i,-8

# Ordered by the number under MT1-MMP act inh (descending): 3 from the list above
mol	Env fusion inh	MT1-MMP act inh	MT1-MMP act inh RFP	Rce1 inhib	UUG fidelity
COCCNC(=S)N/N=C(\C)c1ccc(-n2ccnc2)cc1	-48	2	4	i	-8
N#CC(=NCc1cccnc1)C1=C(O)c2ccccc2C1=O	8	1	-1	i	-7
Clc1ccc(-c2cc(-c3nnc4n3CCCCC4)c3ccccc3n2)cc1	-4	-5	-6	i	-10

# Next part:
SMILES,PABP polyA inh,Env fusion inh,eIF4H inh,CSC inhib,MT1-MMP act inh,MT1-MMP act inh RFP,Rce1 inhib,UUG fidelity
COc1ccc(C(=O)/C=C/c2ccc(OC)c(COc3ccccc3F)c2)cc1,14,·,-7,3,-7,-10,i,-22
CCN(CCn1cccn1)C(=O)c1cc(COc2cc(C)ccc2C)on1,-4,-24,0,-2,-3,-4,i,-4
COc1ccccc1C(=O)Nc1ccc(C(=O)/C=C/c2cccs2)cc1,-10,·,-10,27,3,1,i,-14
CCCc1cc(=O)oc2c(C)c(OCC(=O)c3ccc(N4CCCC4)cc3)ccc12,-3,·,3,·,-2,1,·,-20
Cc1cccc(C)c1N1CCN(C(=O)N2CCCCC2)CC1,10,0,11,-14,0,5,i,·
Oc1ccc(-c2csc(-c3ccccc3)n2)cc1O,3,·,4,·,-5,-12,i,11
COc1ccc(Cc2nn3c(-c4ccccc4OC)nnc3s2)cc1,-4,-29,-2,-2,-5,-7,i,-11
COc1ccc(C(=S)Nc2ccc(C)cc2)cc1,3,·,2,1,3,1,i,·
O=C(c1ccccc1)N1CCN(S(=O)(=O)c2ccccc2)CC1,-9,6,2,-20,1,0,i,·
O=C(Nc1ccc(F)cc1)NC1CCCCC1,4,·,-2,-5,2,1,i,-27
Cc1ccc(S(=O)(=O)N2CCCCC2CCNC(=O)C(=O)NC2CCCC2)cc1 (stereo unspecified),·,-10,·,9,-9,2,i,·
COc1ccccc1C(=O)Nc1cccnc1,-8,0,3,-14,1,2,i,-11
CC(=O)Nc1ccc(NC(=O)c2c(-c3ccccc3Cl)noc2C)c(C)c1,3,-8,-4,-6,-1,0,i,-18
COc1cc(C2c3sc(=O)[nH]c3SC3C(=O)N(c4ccc(Br)cc4)C(=O)C32)ccc1O (stereo unspecified),6,-5,1,-13,-7,4,i,-25
COc1ccc(OC)c2cc3ccccc3cc12,·,15,·,·,-29,9,·,-18

# Record cards (already shown):
# Results for Cc1ccc(/C=N/NC(=O)CN(Cc2ccccc2)S(=O)(=O)c2ccc3c(c2)OCCO3)cc1 = PABP polyA inh = 2; Env fusion inh = ·; eIF4H inh = -5; CSC inhib = 21; MT1-MMP act inh = -1; MT1-MMP act inh RFP = -7; Rce1 inhib = i; UUG fidelity = -12
# Results for Nc1cccc(Nc2ncnc3ccccc23)c1 = PABP polyA inh = 4; Env fusion inh = 3; eIF4H inh = -1; CSC inhib = -10; MT1-MMP act inh = 1; MT1-MMP act inh RFP = -1; Rce1 inhib = i; UUG fidelity = -20

# (next part)
SMILES,PABP polyA inh,Env fusion inh,eIF4H inh,CSC inhib,MT1-MMP act inh,MT1-MMP act inh RFP,Rce1 inhib,UUG fidelity
Cc1cc2oc(=O)cc(CN3CCN(Cc4ccc5c(c4)OCO5)CC3)c2cc1C,2,-50,-1,19,7,1,i,-14
CCOc1ccc(C(=O)NC(C(=O)NCC2CCCO2)C(C)C)cc1 (stereo unspecified),41,10,30,-1,2,1,i,·
COc1ccc(NC(=O)c2ccccc2NS(=O)(=O)c2ccc(C)cc2)c([N+](=O)[O-])c1,0,27,-1,13,1,-11,i,·
COc1ccc(-c2nc(CS(=O)(=O)CC(=O)NC3CCCCCC3)c(C)o2)cc1,7,11,4,-9,-1,1,i,·
CSc1nc(C)cc(-n2ccc(=O)[nH]c2=O)n1,8,-83,5,0,1,4,i,-4
Cc1nnc(NC(=O)c2cc(-c3ccco3)nc3ccccc23)s1,·,-2,·,1,-4,-3,i,-13
CC(C)CNC(=O)C1(C)CCCCCN1C(=O)c1cccnc1 (stereo unspecified),·,-5,·,·,-1,-1,·,-13
COC(=O)c1noc(C)c1-c1ccnn1C(=O)c1ccc(Cl)cc1,6,12,2,·,-2,-4,i,·
CC(C)CNC(=O)c1coc(=O)c(Br)c1,1,i,-13,36,10,7,i,-16
Cc1nnc(NC(=O)CCCCCN2C(=O)C3C4C=CC(C4)C3C2=O)s1 (stereo unspecified),-4,-4,4,-4,3,8,i,-13
O=[N+]([O-])c1ccccc1/C=C/CN1CCN(Cc2ccc3c(c2)OCO3)CC1,-2,3,14,32,5,2,i,-12
CCCn1c(=S)[nH]c2cc(Cl)ccc21,23,-7,3,-9,1,6,i,-22
Cc1ccsc1C(=O)NNC(=O)C1CCCCC1C(=O)O (stereo unspecified),0,-136,-6,-3,-9,0,i,0
CN(C)C(CNS(=O)(=O)c1ccc(Cl)cc1)c1cccnc1 (stereo unspecified),6,-5,-11,-9,3,7,i,-17
O=C(c1ccc(Br)o1)N1CCN(c2ccc3nnc(-c4ccccc4)n3n2)CC1,-8,-5,-7,2,3,-5,i,-14
CC(C(=O)Nc1cccc([N+](=O)[O-])c1)N1CCN(C/C=C/c2ccccc2)CC1 (stereo unspecified),14,·,4,-10,4,-2,i,-11
CCC1CN(C(=O)N2CCC(C(=O)NCc3cccc(F)c3)CC2)c2ccccc2O1 (stereo unspecified),1,2,-9,-1,8,-6,i,15
Cc1ccc(NC(=O)c2ccc(OCc3c(C)noc3C)cc2)c(C)c1,·,·,·,4,-1,-6,·,-13
COC(=O)c1sccc1Oc1ccc(Cl)cc1N1C(=O)CCC1=O,-4,8,-7,17,6,6,i,-8
Cc1sc2nc(SCC(=O)N(C)c3ccccc3)n(C)c(=O)c2c1C,10,7,7,-6,4,-6,i,-4
COc1ccc(-n2ncc3c(SCC(=O)N4CCN(c5ccccc5OC)CC4)ncnc32)cc1,10,44,-2,2,1,-10,·,·
CCN(CC)CCCNC(CC(=O)Nc1cccc([N+](=O)[O-])c1)C(=O)O (stereo unspecified),13,·,1,-3,-1,6,i,-6
Cc1cc(C(=O)N2CCCC(CCC(=O)N3CCN(c4ccccn4)CC3)C2)c(C)o1 (stereo unspecified),-12,11,-3,-8,3,2,i,-16
CC1(C)Oc2ccc3ccc(=O)oc3c2/C(=C/Nc2cccc(O)c2)C1=O,5,9,8,·,-6,-7,i,·
CC(=O)Nc1ccc(S(=O)(=O)NCc2ccc(C(=O)NC(C)c3ccccc3)cc2)cc1 (stereo unspecified),-12,·,-14,16,3,1,i,18
COc1ccc(CC(=O)OCC(=O)NC2CC2)cc1,·,1,·,·,0,-1,·,-23
O=C(O)CCC(=O)NNC(=O)c1cccc(Br)c1,-1,-7,-8,2,4,7,i,·
Cc1nn(-c2ccccc2)c(Cl)c1CN(C(=O)CCl)c1cccc2ccccc12,-3,4,-26,43,-47,-37,i,·
COc1ccc(Cl)cc1-c1n[nH]c(=S)o1,8,-6,-7,-10,-5,0,i,-19
Cc1cc(C)nc(NC(N)=NC(C)c2ccccc2)n1 (stereo unspecified),-4,11,-7,4,·,·,i,·
CCOc1ccc(NC(=O)Cn2nnc(-c3ccccc3NC(=O)CC)n2)cc1,2,-67,-10,12,0,-4,i,·
COCCNC(=O)C(=O)N/N=C(\C)CC(=O)Nc1cccnc1,1,-15,0,-4,5,6,i,-18
COc1ccc(CCN(C)C(=O)C2CC(=O)N(Cc3ccc(C)cc3)C2)cc1OC (stereo unspecified),·,6,·,·,-1,3,·,-5
Cc1ccc(CNC(=O)C2CCCN2C(=O)NCc2ccccc2)cc1 (stereo unspecified),-9,-28,-19,-4,1,5,i,-4
COc1ccc(CC(=O)OCc2nnc(-c3ccccc3)o2)cc1,-2,10,2,-6,5,5,i,·

# Molecules above that contain two or more sulfur atoms (2):
SMILES,PABP polyA inh,Env fusion inh,eIF4H inh,CSC inhib,MT1-MMP act inh,MT1-MMP act inh RFP,Rce1 inhib,UUG fidelity
COc1cc(C2c3sc(=O)[nH]c3SC3C(=O)N(c4ccc(Br)cc4)C(=O)C32)ccc1O (stereo unspecified),6,-5,1,-13,-7,4,i,-25
Cc1sc2nc(SCC(=O)N(C)c3ccccc3)n(C)c(=O)c2c1C,10,7,7,-6,4,-6,i,-4
